Screens as filed in PubChem.
Six1-Eya2 blk = inhibitors of human Six1/Eya2 interaction | AlphaScreen GST-Six1/His-Eya2 binding, biochemical; active compounds read low; control for the full effect not named in the record | activity change, % (no concentration beside the values) | Q15475+O00167 | 360,000 tested, 0.56% active | AID 651725; in the data active = activity change below about -65%; inconclusive = about -30% to -65%; inactive = above about -30%; further: on the % scale 0 is the no-effect control and ±100 the full control effect
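Homogeneous AlphaScreen proximity assay pairing GST-Six1 with His-tagged Eya2 (added as 5X mix: 250 nM and 500 nM) in 50 mM Tris pH 8.0, 300 mM NaCl, 1 mM TCEP. Glutathione donor and nickel acceptor beads; 1 h, 37 °C, dark.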
CtBP-E1A inh = inhibitors of CtBP/E1A interaction; 340,000 tested, 0.49% active; AID 651724; AlphaScreen GST-E1A/His-CtBP binding, 1536-well; active compounds read low; control for the full effect not named in the record; activity change, % (concentration not given with the values); in the data active means activity change below about -65%; inconclusive means about -30% to -65%; inactive means above about -30%; further: on the % scale 0 is the no-effect control and ±100 the full control effect
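Protein mix (5X: 125 nM each GST-E1A, His-CtBP) was incubated with pinned compound 2 h at 37 deg C in dark, in 50 mM Tris pH 8.0 buffer with 300 mM NaCl. Glutathione donor and nickel acceptor beads followed; AlphaScreen signal read after 1 h.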
D2 agonist = agonists of human D2 dopamine receptor (beta-arrestin). P14416. DiscoveRx PathHunter D2 beta-arrestin, luminescence, 90 min; 100% = 57 uM dopamine signal. activation, % (no concentration beside the values). 360,000 tested, 0.084% active; in the data active = activation above about 40%; inconclusive = about 15% to 40%; inactive = below about 15%; further: compound concentration not given in the record; the text of the record calls up to 30% inactive
Target sequence (P14416 whole entry, looked up): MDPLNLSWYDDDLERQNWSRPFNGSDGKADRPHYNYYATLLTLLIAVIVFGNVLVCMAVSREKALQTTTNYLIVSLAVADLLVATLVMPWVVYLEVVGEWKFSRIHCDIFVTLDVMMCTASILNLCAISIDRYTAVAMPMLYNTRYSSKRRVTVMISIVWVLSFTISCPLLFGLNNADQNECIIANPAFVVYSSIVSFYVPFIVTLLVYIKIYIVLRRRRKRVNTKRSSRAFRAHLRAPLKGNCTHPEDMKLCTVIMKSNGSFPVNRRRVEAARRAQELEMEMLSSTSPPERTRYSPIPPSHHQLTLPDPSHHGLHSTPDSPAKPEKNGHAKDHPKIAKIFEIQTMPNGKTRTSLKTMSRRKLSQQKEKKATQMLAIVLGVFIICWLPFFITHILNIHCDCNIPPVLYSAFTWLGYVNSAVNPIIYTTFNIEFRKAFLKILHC
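Agonist mode: compounds alone added to overnight-plated D2 PathHunter cells for 90 min at 37 C, with 57 uM final dopamine (EC100) defining full response. Beta-arrestin recruitment detected by chemiluminescent reagent, read after 1 h at ambient temperature.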
PINK1 modulator = changes PINK1 expression | PINK1 immunofluorescence, high-content cytometry, 24 h | Potency, µM (top dose mostly 76.6 µM), for inactives: top-dose activation (PINK1 increase), usual class: activators | 410,000 tested, 0.2% active; active = well fitted activation curve with a large enough effect; inconclusive = small, poorly fitted or top-dose-only effect; inactive = flat fitted curve, though single readings scatter; cell line not stated here;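 further: potency means the concentration at half of the fitted maximal effect; % of control where 0% means no effect; nearly all actives have a fitted effect of over 65% in size; a mitochondrial uncoupler was the plate control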
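Decision-based qHTS: stable cells, 24 h exposure to five compound concentrations, CCCP as control. Fixed cells stained for PINK1 plus nuclear, mitochondrial and cell markers, cytometer read.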
TRPML1 blocker = blocks the human TRPML1 channel | TRPML1-inducible cells, Ca2+ dye fluorescence, FDSS; active compounds read low; inhibition of EC80 agonist-evoked calcium signal | activity change, negative = inhibition, % (no concentration beside the values) | 390,000 tested, 0.02% active; in the data active means activity change below about -50%; inconclusive means about -30% to -50%; inactive means above about -30%;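 further: stimulus is agonist 54-4 at its EC80 concentration; on the % scale 0 is the no-effect control and ±100 the full control effect; compound concentration not given in the record; the text of the record puts the active cut at -80%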
Target sequence (Q9GZU1 whole entry, looked up): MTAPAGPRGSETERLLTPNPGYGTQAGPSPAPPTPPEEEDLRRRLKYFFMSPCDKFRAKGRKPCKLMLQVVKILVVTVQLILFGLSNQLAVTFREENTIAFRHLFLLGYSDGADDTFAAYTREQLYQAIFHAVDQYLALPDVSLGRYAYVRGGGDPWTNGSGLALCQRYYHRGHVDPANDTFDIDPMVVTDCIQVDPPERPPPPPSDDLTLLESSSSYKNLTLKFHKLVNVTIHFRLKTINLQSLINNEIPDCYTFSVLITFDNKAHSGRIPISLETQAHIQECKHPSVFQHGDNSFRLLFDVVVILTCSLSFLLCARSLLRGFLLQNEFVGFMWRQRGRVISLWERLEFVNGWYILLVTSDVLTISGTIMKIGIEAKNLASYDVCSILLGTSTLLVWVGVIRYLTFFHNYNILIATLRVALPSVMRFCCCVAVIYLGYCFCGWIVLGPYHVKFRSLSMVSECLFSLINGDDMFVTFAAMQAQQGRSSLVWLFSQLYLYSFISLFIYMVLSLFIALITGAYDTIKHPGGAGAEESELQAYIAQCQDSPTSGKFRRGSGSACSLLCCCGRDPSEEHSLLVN
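Calcium fluorescence in TRPML1-DL cells induced overnight with Tet: a 110 s read after compound pin addition, then a 110 s antagonist read after challenge with 54-4 at 4 uM final (EC80).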
TRPML1 ag = agonists of human TRPML1 channel. Q9GZU1. TRPML1-expressing cells, Ca2+ dye fluorescence, FDSS; host cell line not named in the record; reference of the full effect not given here. activation, % (test concentration not listed). 410,000 tested, 0.12% active. AID 624414; in the data active = activation above about 50%; inconclusive = about 30% to 50%; inactive = below about 30%; further: 0% is about no effect; the text of the record puts the active cut at 80%
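In this qHTS format, compounds were pin-transferred onto Ca8-dye-loaded TRPML1-DL cells induced with Tet overnight, and intracellular Ca2+ fluorescence was recorded kinetically for 110 s after a 10 s baseline. A subsequent 4uM final 54-4 (EC80) addition followed by a second 110 s read served as the antagonist phase.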
* = called active by the depositor; ? = inconclusive; . = not tested or not shown; [ ] = another dose, or the depositor's remark.

molecule,Six1-Eya2 blk,CtBP-E1A inh,D2 agonist,PINK1 modulator,TRPML1 blocker,TRPML1 ag
O=S(=O)(O)c1nc2ccccc2n1CCOc1ccccc1,7.4,3.3,-0.5,-0.7%,6.4,-0.8
COC(=O)c1ccccc1NC(=O)Cn1c(=O)n(Cc2ccccc2)c(=O)c2c(C)c(C)sc21,-19.1,-4.3,-3.5,0.3%,8.3,1.1
CCCS(=O)(=O)Nc1ccc(-c2cn3c(n2)SCC3)cc1,-6.6,.,-0.2,1.9%,12.9,0.5
COc1cccc(N(C(=O)CNC(=O)c2ccco2)C(C(=O)NC2CCCC2)c2ccco2)c1 (centres undefined),-2.2,0.0,-1.9,0.9%,-8.4,0.1
COCCOC(=O)C1=C(N)Oc2c(oc(CO)cc2=O)C1c1c(F)cccc1Cl (centres undefined),3.3,-9.9,-0.4,1.2%,2.9,1.0
Cc1ccc(C)c(NC(=O)COC(=O)CNC(=O)c2ccccc2Cl)c1,-1.9,-6.0,-0.6,0.3%,-0.4,0.1
COc1ccc(S(=O)(=O)NCCc2cn3cccc(C)c3n2)cc1OC,-0.7,0.4,-5.8,-0.3%,5.2,-0.3
N#C/C(=C\c1ccc(C(=O)O)cc1)c1nc2sc3c(c2c(=O)[nH]1)CCCC3,-1.3,-16.2,4.0,31.6µM*,2.7,8.6
O=C(CSc1nc2ccccc2[nH]1)NCc1ccco1,-8.7,-19.3,0.4,0.8%[38.3 µM],-19.5,-0.5
Cc1ccc(/C=N/NC(=O)c2nnn(-c3nonc3N)c2CSc2ccc(Cl)cc2)o1,-6.0,3.9,-4.0,2.1%,-1.6,-0.2
Cc1ccc(C(NC(=O)c2ccccc2)C(Cl)Cl)cc1 (centres undefined),9.9,4.5,1.3,-0.8%,-11.5,-0.4
COc1ccccc1CNc1nc2ccccc2n1CCN1CCCCC1,-4.9,-5.1,-5.9,?,3.6,-1.0
CCOC(=O)c1c(C)[nH]c(C(=O)OC(C)C(=O)NCc2ccccc2)c1C (centres undefined),17.1,-15.3,0.1,?,-9.4,-0.4
Cc1cc(S(=O)(=O)NCc2ccccc2)ccc1OCC(=O)N1CCOCC1,-1.1,0.8,2.7,9.3%,39.8,2.0
CN(C)CCN1CCN(C2CN(Cc3cn(Cc4cccc(Cl)c4)nn3)S(=O)(=O)C2)CC1 (centres undefined),-2.7,-0.1,.,-0.9%,.,-0.6
CC(=O)Nc1ccc(NC(=O)C(C)OC(=O)/C=C/c2ccc3c(c2)OCO3)cc1 (centres undefined),-4.1,-2.4,-1.9,7.3%,17.9,-0.9
CCCNC(=O)C(NS(=O)(=O)c1cccc2nsnc12)c1ccccc1 (centres undefined),8.7,-6.5,-3.3,-3.3%,-13.1,-0.4
CC(=O)c1cccc(NC(=O)c2ccc3c(c2)N(Cc2ccc(C)cc2)CCS3)c1,.,.,.,5.3%,0.7,0.1
O=C(NC1=NCCS1)c1cc(-c2ccc(F)cc2)nc2ccccc12,-3.4,-4.1,-0.4,5.5%,-2.1,0.3
COCCCC1CCN(C(=O)C2CCC(=O)N(CCCc3ccccc3)C2)CC1 (centres undefined),2.4,6.4,-3.3,0.2%,-0.6,-0.2
O=C1[C@@H]2CSCN2C(=O)CN1Cc1c(F)cccc1Cl,-1.2,6.5,0.7,2.0%,-16.1,0.2
CCNC(=O)CCCN1C(=O)CCn2nc(-c3cccn3C)cc21,.,.,.,-0.3%,-4.7,0.7
CCCCCCn1c(=O)n2n(c1=O)C[C@]1(OC(=O)NC3CC3)CN(S(=O)(=O)c3ccc(C)cc3)C[C@]1(O)C2,0.4,6.5,-8.2,0.6%,-6.4,-0.2
COc1ccc(-c2csc(N(CC3CCCO3)C(=O)c3ccccc3)n2)cc1 (centres undefined),-8.4,.,-5.6,1.7%,13.4,2.4
CCOC(=O)c1cc2ccccc2n1CC(=O)c1ccccc1,6.9,7.0,-4.0,4.1%,13.5,1.2
Cc1cc(C)n(CC(O)COc2ccc(F)cc2)n1 (centres undefined),-11.4,.,-0.6,0.7%,10.0,-0.6
CCOC(=O)CCc1c(C)c(C#N)c2nc3ccccc3n2c1-n1ccnc1C,-0.2,-9.6,1.5,.,-13.6,-0.1
Cc1ccc(Cc2cnc(NC(=O)c3ccc4c(c3)CC(c3ccccc3)OC4=O)s2)cc1 (centres undefined),.,.,.,0.5%,-15.0,0.9
COc1ccc(NC(=O)Cn2c(-c3ccccc3)cc(C(C)=O)c2C)c(OC)c1,15.2,9.5,-2.2,3.7%,-13.8,-0.1
COc1ccc(-c2ccnc3nc(/N=C/N(C)C)nn23)cc1,-1.9,-6.9,3.4,2.6%,13.7,-0.6
COc1ccc(-c2cc(=O)oc3cc(OCC(=O)NCCN4CCOCC4)ccc23)cc1,2.7,4.5,-1.0,0.7%,?,0.5
CC(C)CN(C(=O)CCNC(=O)c1ccc(Cl)cc1)C1CCS(=O)(=O)C1 (centres undefined),-0.7,2.4,1.2,-0.5%,-25.3,-0.2
CCc1ccc2[nH]c(=O)c(CN(CCCN3CCOCC3)C(=O)Nc3ccc(F)cc3)cc2c1,-5.1,-4.0,-4.1,3.2%,-7.1,-0.8
Clc1cccc2sc(N3CCOCC3)nc12,4.4,1.2,-2.7,-0.6%,10.9,1.6
COc1ccc(CN2CCNC(=O)C2CC(=O)N(C)CC2CCOCC2)c(F)c1 (centres undefined),-4.9,-4.8,3.9,0.9%,-11.3,0.1
Cc1c(NC(=O)C(C)OC(=O)c2c3c(nc4ccccc24)CCC3)c(=O)n(-c2ccccc2)n1C (centres undefined),-5.9,3.6,-0.9,2.2%,-4.8,-0.4
O=C(O)c1ccc2c(c1)C(=O)N(c1cccc3ccccc13)C2=O,6.1,-6.7,-1.6,-0.5%,4.7,-0.9
CCC(C)NC(=O)c1ccc(NS(=O)(=O)c2ccc3[nH]c(=O)[nH]c3c2)cc1 (centres undefined),-6.9,7.4,-3.1,-1.7%,8.7,0.1
Cc1cccc(-c2nc3c(c(SCC(=O)N4CCOCC4)n2)COC(C)(C)C3)c1,11.5,9.8,-2.0,0.7%,11.8,-0.6
CC(=O)N(C)C1=C(O)c2ccccc2C(=O)C1=O,2.2,-2.8,-0.5,1.3%,0.7,-0.2
CC1(C)N=C(c2ccc(Cl)cc2)C(=O)N1,1.3,1.8,1.8,3.6%[38.3 µM],8.5,-0.7
COc1ccc(N2CCN(C3CC(=O)N(C)C3=O)CC2)cc1 (centres undefined),-0.2,2.8,-3.5,0.0%,-0.3,-0.7
CCO[C@@H]1OC(C(=O)NC2CC2)=C[C@H](c2ccc(Br)cc2)[C@H]1CCCO,5.4,2.0,2.4,-1.4%,0.8,-0.2
O=C(Nc1ccc(S(=O)(=O)Nc2nccs2)cc1)c1cccc(F)c1,-20.0,-7.9,-3.0,1.8%,-10.3,0.4
COc1ccc(CNC(=O)c2sc(=O)n(Cc3ccccc3OC)c2C)cc1,-7.1,-11.2,-4.8,-0.7%,.,2.8
Cc1ccc2cc(C)c(SCC(=O)Nc3ccc(S(=O)(=O)N4CCCC4)cc3)nc2c1,-7.8,-0.7,-1.5,-1.2%,0.6,-0.4
CN(C)S(=O)(=O)c1cccc(C(=O)OCC(=O)NCc2ccccc2)c1,5.6,6.0,1.0,-1.9%,11.9,0.9
O=C(NC1CC1)c1ccc(N2CCCCC2)c([N+](=O)[O-])c1,-13.6,-28.1,0.4,-0.2%,-2.1,1.0
c1ccc(-c2nc3ccccn3c2NC2CCCC2)nc1,?,-67.4*,2.7,-1.4%,0.5,3.1
Cc1ccc(S(=O)(=O)N/N=C/c2ccccc2O)cc1,6.6,10.6,3.7,0.8%,-17.6,0.6
CCC(Sc1ccc(Cl)cc1)C(=O)Nc1nnc(-c2cccc([N+](=O)[O-])c2)s1 (centres undefined),-1.1,0.0,-2.3,?,1.7,-0.5
CC(=O)c1cccc(NC(=O)C2C3C=CC(C3=C(c3ccccc3)c3ccccc3)C2C(=O)O)c1 (centres undefined),0.7,.,-5.4,1.1%,-3.8,0.1
CCCNC(=O)C(Cc1ccccc1)NC(=O)c1cccc([N+](=O)[O-])c1 (centres undefined),5.9,4.7,-0.7,-2.2%,-4.5,-0.8
CSc1ccc(CNC2CC2)cc1,-1.8,4.5,-1.5,2.1%[38.3 µM],2.4,0.4
Cc1ccc(NC(=S)NN2CCOCC2)c(C)c1,4.9,6.7,-1.2,-0.5%,2.0,-0.7
CCc1ccccc1NC(=O)CN(C)C(=O)COC(=O)c1ccccc1Cl,-4.2,-18.6,-3.8,-1.3%,3.5,0.3
CCn1c(=S)[nH]c2ccccc21,0.8,7.5,0.4,-0.3%,18.4,-0.3
Nc1nonc1C(=O)N/N=C/c1ccncc1,2.5,2.5,-1.0,1.1%,-14.1,0.2
Clc1ccccc1CO/N=C1\CCCc2nonc21,34.0,-12.9,-3.0,1.9%,2.8,0.7
CC(C)NC(=O)N1Cc2cc(C(=O)NCC(F)(F)F)nc(-c3cccc(-c4cc5ccccc5o4)c3)c2[C@@H]1CCO,-8.4,0.7,.,3.2%,.,0.0

(further entries)
molecule,Six1-Eya2 blk,CtBP-E1A inh,D2 agonist,PINK1 modulator,TRPML1 blocker,TRPML1 ag
COc1ccc(C(C(=O)NCc2ccccc2)N(Cc2ccco2)C(=O)c2snc(C(N)=O)c2N)cc1 (centres undefined),-6.0,0.0,?,0.5%,12.8,1.3
O=c1[nH][nH]c(C(F)(F)F)c1C=Nc1ccccc1,7.4,1.5,-3.5,1.6%,-5.3,-0.1
COC(=O)[C@@H](NC(=O)N1CCN(c2cccc(C(F)(F)F)c2)CC1)C(C)C,26.9,0.0,-4.6,-0.5%,-26.5,1.3
CC1=C(C(=O)OC(C)C)C(c2c[nH]c3ccccc23)n2ncnc2N1 (centres undefined),-17.0,-22.0,-4.0,4.1%,-3.8,-0.2
O=C(COc1ccc2ccccc2c1)NNC(=O)c1ccccc1,-1.2,-5.9,-2.8,2.0%,7.8,-0.5

Record cards, as listed above. Order of screens: Six1-Eya2 blk, CtBP-E1A inh, D2 agonist, PINK1 modulator, TRPML1 blocker, TRPML1 ag
O=c1[nH][nH]c(C(F)(F)F)c1C=Nc1ccccc1 in the list: 7.4, 1.5, -3.5, 1.6%, -5.3, -0.1
O=C(COc1ccc2ccccc2c1)NNC(=O)c1ccccc1 in the list: -1.2, -5.9, -2.8, 2.0%, 7.8, -0.5
COc1ccc(C(C(=O)NCc2ccccc2)N(Cc2ccco2)C(=O)c2snc(C(N)=O)c2N)cc1 (centres undefined) in the list: -6.0, 0.0, ?, 0.5%, 12.8, 1.3
